# Sa ugtP lethal: growth inhibition of ugtP-null S. aureus, primary screen, RN4220 ugtP deletion, OD600; 16 h; some inactives read as strong as hits; growth inhibition, % (no concentration beside the values); 0.54% of 330,000 active; AID 1259309, 2017;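 active = z-score under -3 and OD600 up to 0.15 on both plates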;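 note: plate controls were untreated wells for no effect and antibiotic for full effect; wells of about 80 µL received 100 nL stock; the first replicate is given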
# Bead autofluor: counter-screen for toxin protease inhibitors: compound fluorescence; compound autofluorescence counterscreen, microsphere flow cytometry; active compounds read high; fluorescence intensity (no concentration beside the values); 3.1% of 360,000 active;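 active = at least 3 SD above the mean of all compounds, about 16000 in these data; inconclusive = too few beads counted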;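 note: 100 nL of 1 mM stock went into each well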
# Mtb hypoxia inh: PubChem AID 1159583 | M. tuberculosis hypoxia-regulated fluorescent reporter, fluorescence | fluorescence inhibition, % (concentration not given with the values) | 0.1% of 300,000 active;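 active = 35 to 45% if threefold the growth effect, above 45% if 1.5-fold the growth effect; inactive = the rest, general growth blockers included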;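 note: wells of about 50 µL received 100 nL stock; 0% = vehicle wells and 100% = reference inhibitor wells; whole bacteria with a GFP reporter of the hypoxia response; strong numbers were not always called active; many hits fall short of the cut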
# RN4220 kill: growth inhibition of S. aureus RN4220, primary screen, OD600 | 16 h | inhibition, % (concentration not given with the values) | 0.33% of 330,000 active | AID 1259311, 2017;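 active = z-score of -3 or lower and OD600 up to 0.18 on both plates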;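 note: plate controls were untreated cells for no effect and reference antibiotic for full effect; stock transfer was 100 nL into about 80 µL; one replicate is shown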
# PrP 5UTR inh: inhibition of PrP 5' UTR reporter expression | cell-based PrP 5' UTR mRNA reporter, plate reader | inhibition, % (test concentration not listed) | 0.35% of 340,000 active;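 active = every replicate at 50% or more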;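 note: 0 = median of the neutral control wells; tested in H4 reporter cells; numbers are from one replicate; inactives centre near -14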
# BJeLR lethal: MLPCN primary cell-based screen for lethality selective to Ras in HRASV12 cells; BJeLR (HRASV12) viability, CellTiter-Glo ATP luminescence, 48 h; reference of the scale not given here; inhibition, % (no concentration beside the values); 0.17% of 300,000 active; AID 1554, 2009;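 active = replicate mean above 50%; inconclusive = above 50% but judged a plate artefact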;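 note: 50 nL library stock added to about 25 µL; numbers are from one replicate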
# Mtb hypoxia inh growth: further read-out of Mtb hypoxia inh, marked with its call; growth inhibition, %; measured here: M. tuberculosis growth (absorbance);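 0% = vehicle and 100% = reference antibiotic; read after six days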
# * = called active by the depositor; ? = inconclusive; nt = no result given.
SMILES,Sa ugtP lethal,Bead autofluor,Mtb hypoxia inh,Mtb hypoxia inh growth,RN4220 kill,PrP 5UTR inh,BJeLR lethal
c1ccc(C2=Nn3c(nnc3-c3cc(-c4ccccc4)n[nH]3)SC2)cc1,-34,2679,nt,nt,6.7,-11,-3
CCOC(=O)C1=C(C)NC2=C(C1c1ccc([N+](=O)[O-])cc1)S(=O)(=O)c1ccccc12 (stereo unspecified),2,17917*,-4,-6,-1.6,-21,8
COc1ccc(NC(=O)C(C)N2CCN(C)CC2)cc1 (stereo unspecified),1,4092,-4,-1,0.5,-16,-6
COCC(=O)NCc1ccc2c(c1)cc(C)n2C,4,1948,-3,-6,2.0,-1,-3
O=C(CSc1nnc(COc2ccccc2)n1Cc1ccco1)c1ccc(F)cc1,-11,14050,0,-1,-2.4,-10,0
COc1ccc(S(=O)(=O)NC2CC(C)(C)NC(C)(C)C2)cc1,1,6033,0,-1,1.7,-10,-4
CCSc1nnc(NS(=O)(=O)c2ccc(C)cc2)s1,-5,2154,6,-2,20,-19,4
COc1cc2c(cc1OC)C(c1cccc(Cl)c1)CC(=O)N2 (stereo unspecified),14,4169,13,13,6.4,-13,14
COC(=O)Cn1c2ccc(OC)cc2c2nc(C)sc21,5,nt,11,14,2.2,-12,-4
Cc1ccc(OCC(=O)c2c(O)c3ccccc3oc2=O)cc1C,58,3067,4,10,58,-5,4
Cc1ccc2[nH]c(=S)n(-c3cccnc3)c(=O)c2c1,6,4344,11,-6,3.4,-6,-13
Cc1cc(C)n2c(SCCO)nnc2n1,8,3492,6,12,3.2,-18,-1
Nc1c(Cl)ncnc1NN=Cc1ccncc1,-2,nt,6,6,-1.1,nt,nt
O=C(O)CCC(=O)NC1CCCCCCC1,-4,6218,-4,0,-1.5,-21,-11
Cc1nc(S(=O)(=O)c2ccc(Cl)cc2)c(N(C)C)o1,0,6002,-3,-4,2.2,-26,-3
COc1cc(C)c(S(=O)(=O)N2CCOCC2)cc1C,1,11636,13,10,4.2,-23,-7
CCn1cc(SCC(=O)NC2CCCC2)c2ccccc21,-5,5986,-3,-1,-0.1,-7,-3
CCOc1ccc(-c2nnc3ccc(SCC(=O)Nc4nc5ccc(C)cc5s4)nn23)cc1,-3,2143,7,-2,-3.0,-30,-2
C=C(C)CCC(C)N1CCC(n2nccc2NC(=O)CCCc2ccccc2)CC1 (stereo unspecified),2,7001,-1,2,-1.9,-6,-5
COc1ccc(C(=O)NCC2OCCc3ccccc32)c(O)c1 (stereo unspecified),0,4055,nt,nt,-3.9,-33,15
O=[N+]([O-])c1cc(-c2ccc(C=Nc3nc4ccccn4c3-c3ccco3)o2)ccc1Cl,-9,nt,6,6,23,nt,nt
CC1CCCCC1NC(=O)c1cccc(NC2=NC3CS(=O)(=O)CC3S2)c1 (stereo unspecified),-2,5685,3,11,-1.8,-13,-9
Cc1[nH]c2ccccc2c1C(=O)C(=O)N1CC2CC(C1)c1cccc(=O)n1C2 (stereo unspecified),-2,4104,-9,5,-0.6,6,-6
c1ccc(-n2nnnc2SCc2cn3ccccc3n2)cc1,-2,?,-1,-5,-0.2,13,-9
COc1ccc(N=c2oc3c(OC)cccc3cc2C(=O)NCc2ccco2)cc1OC,-11,19539*,-12,-8,5.1,-14,nt
C[C@@H]1CN(c2nc3nonc3nc2N2CCSCC2)C[C@H](C)O1,nt,4371,nt,nt,nt,-16,-11
CCCN(CCC)S(=O)(=O)c1ccc(C(=O)NCc2n[nH]c(=S)n2-c2ccc(Cl)c(Cl)c2)cc1,-13,2521,-4,10,9.1,-20,-9
O=C(CSCc1c(Cl)cccc1Cl)Nc1cccnc1,-4,4444,0,13,2.1,-6,0
Cc1nc(-c2cccnc2)sc1C(N)=O,6,16867*,12,2,1.4,-15,-3
CCOC(=O)C1CCCCN1Cc1ccc(F)c(Br)c1 (stereo unspecified),10,8702,-1,0,2.5,-22,8
CCN1CC2C3C(=O)N(C)C(=O)C3[C@](C)(C1=O)N2C(=O)c1ccccc1 (stereo partly specified),-3,nt,1,4,3.8,nt,nt
CC1(Cc2cn(CCC#N)c3ccccc23)OCCO1,3,3133,nt,nt,2.0,-6,3
COc1ccc(C2=NO[C@@H]3C(=O)N(Cc4ccccc4)C(=O)[C@H]23)cc1OC,9,8330,2,-1,5.7,-17,1
CCn1cc(/C=C/C(=O)Nc2c(C)nn(Cc3ccccc3C)c2C)cn1,-1,2428,2,13,4.3,2,13
COc1ccc([N+](=O)[O-])cc1NC(=O)C(C)OC(=O)C1CC(=O)N(Cc2ccco2)C1 (stereo unspecified),4,?,-4,-7,0.2,-11,3
O=C(O)CCC(=O)Nc1ccc2c(c1)oc1ccccc12,-2,7747,5,3,0.2,-27,-4
Cc1ccc(C)c(N2CCN(C(=O)c3cccn4c(=O)c5sccc5nc34)CC2)c1,-5,4702,-2,-5,4.4,-16,7
COCCCNC(=O)CCn1c(=O)c2ccccc2n(CC(=O)Nc2ccc(C)cc2C)c1=O,-5,2295,nt,nt,1.4,-14,-3
CCCC1=C(C(=O)OCC)C(c2ccc(O)cc2)n2ncnc2N1 (stereo unspecified),-4,4429,nt,nt,5.0,-15,1
CC(=O)c1ccc(NC(=O)CCNS(=O)(=O)c2ccccc2F)cc1,1,3681,4,0,7.8,-11,3

# Random excerpt: 4 compounds from above.
SMILES,Sa ugtP lethal,Bead autofluor,Mtb hypoxia inh,Mtb hypoxia inh growth,RN4220 kill,PrP 5UTR inh,BJeLR lethal
Cc1nc(-c2cccnc2)sc1C(N)=O,6,16867*,12,2,1.4,-15,-3
CCSc1nnc(NS(=O)(=O)c2ccc(C)cc2)s1,-5,2154,6,-2,20,-19,4
Nc1c(Cl)ncnc1NN=Cc1ccncc1,-2,nt,6,6,-1.1,nt,nt
CCOc1ccc(-c2nnc3ccc(SCC(=O)Nc4nc5ccc(C)cc5s4)nn23)cc1,-3,2143,7,-2,-3.0,-30,-2

# Following part
SMILES,Sa ugtP lethal,Bead autofluor,Mtb hypoxia inh,Mtb hypoxia inh growth,RN4220 kill,PrP 5UTR inh,BJeLR lethal
CCN(CC)S(=O)(=O)c1cccc(NC(=O)COC(=O)C2COc3ccccc3O2)c1 (stereo unspecified),3,2668,4,5,1.7,43,0
O=C(Nc1cnn(Cc2ccc(F)cc2)c1)c1noc2c1CCCC2,6,nt,2,-4,-1.4,-65,6
S=C1NCN(Cc2cccnc2)CN1c1cccc2ccccc12,4,3772,6,17,4.0,nt,-17
Cc1ccc(C(=O)N(CC(=O)NC2CCCC2)c2ccc3c(c2)OCCO3)s1,4,3941,7,7,7.3,-27,-3
Cc1cc(NS(=O)(=O)c2ccc(NC(=O)C(C)N3C(=O)c4ccccc4C3=O)cc2)nc(C)n1 (stereo unspecified),7,4282,7,-4,1.7,-20,12
Cc1nnsc1C(=O)NN=Cc1cccc(C(F)(F)F)c1,3,nt,-4,13,4.5,nt,nt
C[C@]12c3[nH]c4ccccc4c3CCN1C(=O)C(CC(=O)NCCN1CCOCC1)C[C@@H]2C(=O)N1CCOCC1 (stereo partly specified),10,4143,3,-1,3.4,-6,nt
Cc1ccc[n+](CC(=O)c2ccc(Br)cc2)c1,8,4140,-3,3,-2.3,-16,7
CCc1ccc(-c2csc3ncn(CC(=O)N4CCOCC4)c(=O)c23)cc1,9,3565,nt,nt,4.4,-2,5
CCc1sc(NC(=O)CCC(=O)O)nc1-c1cc2ccccc2oc1=O,2,4246,-1,3,5.3,-1,2
COc1ccc(-c2nc(-c3ccc(NC(=O)c4ccc(Br)o4)cc3)no2)cc1OC,-11,2021,nt,nt,0.2,-17,13
Cc1ccc(S(=O)(=O)N2CCOCC2)cc1NC(=O)COC(=O)Cn1c(C)csc1=O,0,?,-5,13,2.1,-2,3
CCOC(=O)c1cnc(SCC(=O)OCC(=O)N(CC)C2CCS(=O)(=O)C2)nc1N (stereo unspecified),1,nt,5,0,-1.1,-6,9
Cc1c(C(=O)O)sc2nc(-c3cccs3)cc(C(F)(F)F)c12,-14,3107,-9,0,2.0,-22,-7
CC1CC(C)CN(CC(=O)Nc2ccc(S(N)(=O)=O)cc2)C1 (stereo unspecified),3,4901,nt,nt,-2.3,-3,-8
Cc1cnc(C(=O)OCC(=O)C23CC4CC(CC(C4)C2)C3)cn1,8,4842,2,-4,4.2,-3,1
CCn1nnc(NC(=O)C(C)(c2ccccc2)c2ccccc2)n1,5,4641,15,11,0.4,-18,0
CCCCCCCNc1nc(Cl)nc(NCCO)n1,5,2453,15,2,5.7,-16,-1
COC(C[C@@H]1O[C@@H]1C(=O)[C@@H](C)OCc1ccccc1)OC,nt,3666,nt,nt,nt,-16,-6
O=C(Nc1ccc(Cl)cn1)c1ccc(COc2ccccc2Br)o1,14,4403,5,4,14,-20,-6
CCOC(=O)C1=c2/c(=C/c3ccncc3)c(N)c(C(=O)OC)n2C(=O)C(c2ccncc2)S1 (stereo unspecified),nt,4647,nt,nt,nt,-39,3
O=C(CSc1nnc(-c2cc(-c3cccs3)nc3ccccc23)o1)NC1CCCCC1,-24,3035,19,7,1.2,-10,-2
CCN1/C(=C/c2ccc3cc(C)ccc3[n+]2CC)Sc2ccc3sccc3c21,101*,3616,nt,nt,100*,15,92*
CC1=C(C(=O)Nc2ccc(C)cc2C)C(c2cccs2)NC(=S)N1 (stereo unspecified),3,11416,4,4,0.4,-23,3
C=CCn1c(=O)/c(=C/c2ccc(Cl)cc2)s/c1=C(/C#N)c1nnc2n1CCCCC2,nt,10535,nt,nt,nt,-13,7
Cc1ccccc1NC(=O)CNC(=O)c1ccc(C(F)(F)F)cc1,1,2037,11,2,2.5,-7,-1
O=C1N(c2ccc3c(c2)OCCO3)C(c2ccccc2)C1(F)F (stereo unspecified),8,3167,-4,4,2.7,-7,-12
CSc1nc2cc(C)nn2c(-c2ccc(C(C)(C)C)cc2)c1C#N,-7,nt,-5,-10,-6.1,-25,2
O=C(CSCc1cnn(-c2ccccc2)c1-n1cccc1)NCc1cccs1,4,3831,15,5,-19,-14,2
COc1cc(/C=N/NC(=O)CCc2n[nH]c(=O)[nH]c2=O)cc(OC)c1OC,nt,1996,nt,nt,nt,-10,-3
Cc1nn(C)c(C)c1NS(=O)(=O)c1ccccc1Cl,5,2910,-1,-2,2.8,-5,nt
O=C(Cn1nc2sc3ccccc3n2c(=O)c1=O)c1ccc(Cl)cc1,5,nt,8,-1,-0.8,nt,0
COCCn1c(SCC#N)nnc1-c1ccccc1O,1,20776*,0,8,2.7,-25,-9
COc1ccc(C)cc1NC(=O)C1CCN(S(=O)(=O)c2cccc3cccnc23)CC1,6,4988,nt,nt,-2.5,-41,3
COCc1c(C(=O)N/N=C/C2CC=CCC2)nnn1-c1nonc1N (stereo unspecified),nt,2484,nt,nt,nt,-15,-8
Cn1cc(SCC(=O)N2CCCc3ccccc32)c2ccccc21,-9,5744,7,5,-1.4,-14,-5
CCN1C(=O)C(=O)N(CC(=O)c2cc(C)n(C3CC3)c2C)C1=O,2,8585,-3,2,-1.0,-25,nt
COc1ccc(S(=O)(=O)NC(CC(=O)N2CCc3ccccc32)c2ccco2)cc1 (stereo unspecified),-5,2469,nt,nt,-1.7,-13,5
COc1ccc(OC)c(-n2c(-c3cccc(C)c3)n[nH]c2=S)c1,10,2194,-4,-8,4.1,-23,-13
CCN(CC)C(=O)c1ccc(C(=O)c2c(C)cc(C)cc2C)cc1,1,3101,-2,-3,8.3,-8,7
O=C1c2ccccc2NC(c2ccc(O)cc2)N1N=Cc1ccc(O)cc1 (stereo unspecified),1,nt,6,7,2.4,nt,nt
Cc1cc(N2CCN(c3ccccc3)CC2)nc(-n2nc(C)cc2C)n1,8,9652,4,2,15,-40,-1
COc1ccc(CCNC(=O)c2ccc(-c3ccc([N+](=O)[O-])cc3Cl)o2)cc1,-6,8181,9,5,8.4,-15,-2

# A draw from above in order of molar mass, low to high:
SMILES,Sa ugtP lethal,Bead autofluor,Mtb hypoxia inh,Mtb hypoxia inh growth,RN4220 kill,PrP 5UTR inh,BJeLR lethal
Cc1nc(S(=O)(=O)c2ccc(Cl)cc2)c(N(C)C)o1,0,6002,-3,-4,2.2,-26,-3
Cc1cnc(C(=O)OCC(=O)C23CC4CC(CC(C4)C2)C3)cn1,8,4842,2,-4,4.2,-3,1
CCN1/C(=C/c2ccc3cc(C)ccc3[n+]2CC)Sc2ccc3sccc3c21,101*,3616,nt,nt,100*,15,92*
